2A StopGo: FMDV 2A StopGo reporter, luciferase signal; human cells with a luciferase reporter of 2A StopGo recoding; control for the full effect not named in the record; Potency, µM (doses to about 57.9 µM), inactives show at the highest dose signal change, negative = less light; 1.2% of 410,000 active; active = well fitted falling curve with a large enough effect; inconclusive = small, poorly fitted or top-dose-only effect; inactive = no such curve, though single readings can be large or run the other way; tested in HEK293T cells; also: nearly all actives have a fitted effect of over 45% in size; luciferase light after 4 h
* marks the source's active call; other numbers are inactive results; ? = inconclusive; & = joins results of further samples; [ ] = remark or other dose. % is scaled to controls: 0 for no effect and ±100 for the full control effect; potency is read from the fitted curve at half-maximal effect.

The first 4 records as a preview:
SMILES	2A StopGo
Cc1c(C(=O)NCCc2cccnc2)cnn1-c1nccc(-c2ccccc2F)n1	11.7%
Cc1ccccc1-c1cccc(CN2CCc3nnc(C(NS(C)(=O)=O)C(C)C)n3CC2)c1 (configuration not stated)	-3.1%
O=C(NCCO)c1cn(C2CCCN(Cc3cccc(C(F)(F)F)c3)C2)nn1 (configuration not stated)	-13.6%
COc1ccccc1-c1ccnc(-n2ncc(C(=O)N3CCN(C(C)C)CC3)c2-c2ccco2)n1	0.4%

Main list, from the first entry:
SMILES	2A StopGo
Cc1c(C(=O)NCCc2cccnc2)cnn1-c1nccc(-c2ccccc2F)n1	11.7%
Cc1ccccc1-c1cccc(CN2CCc3nnc(C(NS(C)(=O)=O)C(C)C)n3CC2)c1 (configuration not stated)	-3.1%
O=C(NCCO)c1cn(C2CCCN(Cc3cccc(C(F)(F)F)c3)C2)nn1 (configuration not stated)	-13.6%
COc1ccccc1-c1ccnc(-n2ncc(C(=O)N3CCN(C(C)C)CC3)c2-c2ccco2)n1	0.4%
Cc1ccccc1C1(CC(=O)N2CCCCC2c2cccnc2)CC(=O)N(C2CCCC2)C1=O (configuration not stated)	26.2%
COc1cc(-c2cccnc2)cc2c1OCCN(C(=O)Cc1csc(C)n1)C2	0.6%
COc1ccc(C)cc1N1C(=O)[C@@H]2C[C@H]1CN2Cc1cccc(OC)c1O	-3.1%
CS(=O)(=O)Nc1cc(C(=O)N2CCNC(=O)C2)c2c(c1)ncn2CCc1ccccc1	-2.0%
Cc1nn(C)cc1CN1CCOc2ccc(CN3CCC(Oc4cccnc4)CC3)cc2C1	-6.3%
Oc1cc(-c2nc3ccccc3s2)cc2c1OCCN(Cc1cccn1-c1ccc(Cl)cn1)C2	25.5%
Cc1nc2cc(NC(=O)[C@@H]3C[C@@H](Sc4ccccn4)CN3Cc3cccc(F)c3)ccc2s1	5.3%
Cc1ccc(CNc2nc(CN3CCN(C=O)CC3)nc3ccccc23)o1	-3.0%
CC(C)(CNC(=O)c1cnn(-c2nccc(-c3cc4ccccc4o3)n2)c1C1CC1)N1CCOCC1	6.3%
c1cncc(OC2CCN(Cc3ccc4c(c3)CN(Cc3ccc5c(c3)OCCO5)CCO4)CC2)c1	-19.4%
COc1ccc(CN2CCCC(c3nc(-c4ccncc4)ncc3-c3ccccc3)C2)c(OC)c1OC (configuration not stated)	-4.3%
C=C1[C@@H](C)[C@H]2[C@H](Cc3ccccc3)NC(=O)[C@]23[C@H](OC(C)=O)/C=C/[C@](C)(O)C(=O)[C@@H](C)C/C=C/[C@H]3[C@@H]1O	-14.3%
COc1ccc(CN2CCOc3ccc(C(O)c4cccnc4)cc3C2)c(F)c1 (configuration not stated)	-29.6%
Cc1cccc(CNC(=O)c2cnn(-c3nccc(-c4ccccc4C(F)(F)F)n3)c2C)n1	-10.4%
CCC(=O)O[C@H]1[C@H](O[C@@H]2[C@@H](C)[C@H](O[C@H]3C[C@@](C)(OC)[C@@H](O)[C@H](C)O3)[C@@H](C)C(=O)O[C@H](CC)[C@@](C)(O)[C@H](O)[C@@H](C)C(=O)[C@H](C)C[C@@]2(C)O)O[C@H](C)C[C@@H]1N(C)C	-10.7%
O=C(O)c1ccc(-c2noc(-c3ccccc3C(F)(F)F)n2)cc1	49.0%[activator]
Oc1ccc(Cl)cc1Nc1nc(NCC2CCCO2)c2ccccc2n1 (configuration not stated)	28.2µM*
CC(C)c1c(C(=O)N2CCCCC2c2cccnc2)cnn1-c1nccc(-c2cccs2)n1 (configuration not stated)	-18.0%
O=C(Cc1ccc2c(c1)OCO2)N1CCOc2ccc(CN3CCOCC3)cc2C1	10.3%
Cc1cc2c(c(-c3cnccn3)c1)OC(CNC(=O)C1CCCN(C)C1)C2 (configuration not stated)	-11.7%
COc1ccc(-n2c(CCNC(=O)c3ccc(-c4cccc(F)c4)cc3)nnc2SC)cc1	-4.8%
COc1ccc(-n2c(CNC(=O)c3cc(C(F)(F)F)ccc3Cl)nnc2SC)cc1	-5.4%
COC(=O)c1cc(CNC(=O)c2cccc(C)c2)cc(NC(=O)c2ccncc2)c1	-5.8%
CSc1ncccc1C(=O)N1CCOc2ccc(C(C)(O)CCn3cccn3)cc2C1 (configuration not stated)	-2.2%
CC(C)ON(CC(=O)NO)S(=O)(=O)c1ccc(-c2ccccc2)cc1	-22.5%
Cc1ccc2[nH]c(C(=O)N3CCc4c(cnc(C)c4CNC(=O)c4ccccc4F)C3)cc2c1	-6.1%

3 of these compounds, set out differently:
SMILES,2A StopGo
O=C(Cc1ccc2c(c1)OCO2)N1CCOc2ccc(CN3CCOCC3)cc2C1,10.3%
Cc1cc2c(c(-c3cnccn3)c1)OC(CNC(=O)C1CCCN(C)C1)C2 (configuration not stated),-11.7%
COc1ccc(-n2c(CCNC(=O)c3ccc(-c4cccc(F)c4)cc3)nnc2SC)cc1,-4.8%

Following part
SMILES	2A StopGo
O=C(c1ccc(F)c(F)c1)N1CCOc2ccc(CN3CCN(CCO)CC3)cc2C1	-2.2%
COC(=O)[C@@H]1C[C@H](NC(=O)c2ccccc2C(F)(F)F)CN1Cc1cccc(O)c1	-13.1%
COc1cc(C)c(CN2CCc3nnc(C(C)NC(=O)c4cccnc4)n3CC2)cc1C (configuration not stated)	-1.3%
O=C(O)COc1ccc(OCCNC[C@H](O)COc2ccccc2)cc1	-12.8%
COc1cc(=O)n2c(c1C(=O)N(C)Cc1nccs1)CCN(Cc1c(F)ccc(F)c1F)CC2	-1.1%
Cc1cc2c(c(-c3cnccn3)c1)OC(CNC(=O)c1c(F)cccc1Cl)C2 (configuration not stated)	-13.0%
Cc1cc(C(=O)Nc2cccc(-c3nc(CNC(=O)c4ccccc4C(F)(F)F)c(C)o3)c2)c(C)o1	27.8%
CS(=O)(=O)c1ccc(-c2nc(-c3ccc(F)cc3)c(-c3ccncc3)[nH]2)cc1	-20.1%
COc1cccc(CN2C(=O)[C@H]3Cc4c([nH]c5ccccc45)C(C)(C)N3C2=O)c1	35.5µM*
NC(C(=O)O)c1ccc(P(=O)(O)O)cc1 (configuration not stated)	-13.7%
CCCc1nc2cccnc2n1C1CCN(C(=O)Cn2nccc2C)CC1	8.5%
Cc1cnc(SCC2CCCO2)nc1C1CCCN(C(=O)c2ccc(S(N)(=O)=O)cc2)C1 (configuration not stated)	5.4%
CN(CCCN1c2ccccc2CCc2ccccc21)CC(=O)c1ccc(Cl)cc1	4.1%&-10.1%
COCC1CCCN(Cc2ccc3c(c2)CN(C(=O)c2ccc(-c4ccc(C)o4)cc2)CCO3)C1 (configuration not stated)	7.6%
CC(C)[C@H](NC(=O)CNC(=O)OC(C)(C)C)C(=O)N[C@H](C=O)C(C)C	-2.9%
Nc1nc2c(ncn2[C@@H]2O[C@H](COP(=O)(O)OP(=O)(O)O)[C@@H](O)[C@H]2O)c(=O)[nH]1	26.2%
CC(=O)Oc1ccccc1C(=O)Nc1ccccc1	14.9%
NS(=O)(=O)c1nn2cc(-c3ccccc3)nc2s1	9.0%
COC(=O)c1ccc(C(=O)NCC2Cc3cccc(-c4ccc(C(=O)OC)cn4)c3O2)cc1 (configuration not stated)	9.5%
COC(=O)[C@@H]1CCCN1Cc1ccc2c(c1)CN(Cc1cccn1-c1ccc(Cl)cn1)CCO2	-1.7%
COC(=O)C1CCN(Cc2ccc3c(c2)CN(C(=O)c2cc(C4CC4)on2)CCO3)CC1	-15.3%
Cc1c(C(=O)N2CC3CCC2C3)sc2ncnc(NCc3ccco3)c12 (configuration not stated)	-9.5%
COc1cccc(C(=O)NCC2Cc3cccc(-c4cccnc4)c3O2)c1 (configuration not stated)	23.0%
COc1cc2nc(CN(CCO)C3CS(=O)(=O)CC3O)nc(N3CCCCC3)c2cc1OC (configuration not stated)	-3.0%
O=C(c1ccc(N2CCC(NCCCn3ncc4ccccc43)CC2)cc1)N1CCc2ccccc2C1	-0.1%
COc1ccccc1C1CN(CCNC(=O)c2ccccc2Cl)Cc2ccccc2O1 (configuration not stated)	8.2%
CC(N)COC(=O)C(CCCCN)NC(=O)Cc1c(-c2ccc3ccccc3c2)[nH]c2c1ccc1ccccc12 (configuration not stated)	-21.8%
C[C@@H]([C@H](O)c1ccccc1)N(C)C	-3.1%
CN(CCc1ccc(Cl)c(Cl)c1)CC(O)COc1ccc(NS(C)(=O)=O)cc1 (configuration not stated)	-9.2%
COc1cc(-c2c(OC)cccc2OC)cc2c1OCCN(Cc1cn[nH]c1-c1ccc(Cl)cc1)C2	-1.4%
Cn1nc(C(=O)NCCN2Cc3ccccc3OC(c3ccsc3)C2)c2ccccc2c1=O (configuration not stated)	-5.4%
COC(=O)c1c(OCc2ccccn2)cc(=O)n2c1CCN(C(=O)c1cc(C(C)C)nn1C)CC2	0.7%
COc1ccc2c(c1)CC[C@@H]1[C@@H]2CC[C@]2(C)[C@@H](NCCCCCCN3C(=O)C=CC3=O)CC[C@@H]12	-8.5%
Cc1ncc2c(c1CNC(=O)/C=C/c1cccs1)CCN(C(=O)c1c(C)noc1C)C2	-4.8%
CO[C@H]1[C@H](NC(=O)c2ccsc2)c2ccccc2C12CCN(Cc1cccc3ncccc13)CC2	-17.3%
CCS(=O)(=O)Nc1cc(C(=O)N2CCCN(C=O)CC2)c2c(c1)nc(-c1ccccc1)n2C	0.0%
CC[C@H](CC[C@@H](C)[C@H]1CC[C@H]2[C@@H]3CC=C4C[C@@H](O)CC[C@]4(C)[C@H]3CC[C@]12C)C(C)C	-9.6%
C#Cc1cccc(C(=O)NCc2nc(-c3ccccc3NC(=O)C3CCCO3)oc2C)c1 (configuration not stated)	-7.0%
COc1ccc(C(=O)N2CCOc3ccc(CN4CCN(c5ccccn5)CC4)cc3C2)o1	?
CO[C@H]1[C@H](NC(=O)c2ccco2)c2ccccc2C12CCN(Cc1cnc(N(C)C)s1)CC2	-15.6%
CCCCc1nn(-c2ccccc2C(F)(F)F)c(=O)n1Cc1ccc(-c2ccccc2S(=O)(=O)NC(=O)c2sccc2C)cc1	?
COc1cc(=O)n2c(c1C(=O)NCc1ccco1)CCN(C(=O)c1cccnc1SC)CC2	17.4%
Cc1nc(C)n(CC(=O)NCC2Cc3cc(-c4ccsc4)cc(Cl)c3O2)n1 (configuration not stated)	-6.6%
COc1ccc2c(c1)CCc1cnc(-n3ncc(C(=O)NCCCc4ccncc4)c3C)nc1-2	?
COc1ccc(Cl)cc1-c1cc2c(c(OC)c1)OCCN(Cc1cccn1-c1nccs1)C2	0.7%

Arranged by formula weight (highest first): part of the list above.
SMILES	2A StopGo
COc1ccc(Cl)cc1-c1cc2c(c(OC)c1)OCCN(Cc1cccn1-c1nccs1)C2	0.7%
COC(=O)c1c(OCc2ccccn2)cc(=O)n2c1CCN(C(=O)c1cc(C(C)C)nn1C)CC2	0.7%
CCS(=O)(=O)Nc1cc(C(=O)N2CCCN(C=O)CC2)c2c(c1)nc(-c1ccccc1)n2C	0.0%
COc1ccc(C(=O)N2CCOc3ccc(CN4CCN(c5ccccn5)CC4)cc3C2)o1	?

Next section.
SMILES	2A StopGo
CCC1CN(Cc2cccc3nccnc23)Cc2cc(OC)ccc2O1 (configuration not stated)	1.4%
COc1ccc(CN2CCC3(CCC(CNC(=O)c4ccco4)O3)CC2)c(OC)c1C (configuration not stated)	-15.4%
COc1cccc(Nc2nc(NCCO)nc(N3CCCC3)n2)c1	-18.4%
CC(C)CSc1nnc(CNC(=O)c2ccccn2)n1C	-8.4%
CC1CN(CC(=O)NCCc2ccncc2)Cc2ccccc2O1 (configuration not stated)	-2.7%
CC(C)C(NS(=O)(=O)c1ccc(-c2ccc(Br)cc2)cc1)C(=O)O (configuration not stated)	19.1%
COCc1c(C(=O)N2CCCC(C)C2)cnn1-c1nccc(-c2cc(C)sc2C)n1 (configuration not stated)	25.9%
Cc1cccc(CNC(=O)c2cnn(-c3nccc(-c4cc5ccccc5o4)n3)c2C2CC2)n1	-22.2%
CC(C)c1cc(C(=O)N2CCOc3ccc(CN4CCC(Oc5cccnc5)CC4)cc3C2)n[nH]1	-8.0%
Cc1ccc(CNc2ncnc3sc(C(=O)N4CCCC(C(N)=O)C4)c(C)c23)o1 (configuration not stated)	-19.8%
O=C1CCN(Cc2cccn2-c2ccccn2)CCN1Cc1ccccc1C(F)(F)F	0.0%
COc1cc(-c2cccc(Cl)c2)cc2c1OCCN(C(=O)CCn1ccc(C)n1)C2	-14.8%
COCCN(C)C(=O)c1cnn(-c2ncc3c(n2)-c2ccccc2CCC3)c1C1CC1	43.0%[activator]
Cc1cnc(-n2ncc(C(=O)N(C)CC3CCCN(C)C3)c2C2CC2)nc1-c1cccs1 (configuration not stated)	-15.8%
Cc1csc(C(C)N(C)C(=O)c2cc(NC(=O)C3CCC3)c3c(c2)nc(-c2ccncc2)n3C)n1 (configuration not stated)	15.4%
CC(O)(C(=O)Nc1ccc(S(=O)(=O)c2ccccc2)cc1)C(F)(F)F (configuration not stated)	3.0%&6.9%
CCCCC/C=C\C\C=C/C=C/C=C/[C@@H](SC[C@H](N)C(=O)O)[C@@H](O)CCCC(=O)O	-1.5%[0.463 µM]
COc1ccc(CN2C[C@H](Sc3nc4ccccc4[nH]3)C[C@H]2C(=O)N2CCCN(C)CC2)cc1C	-11.8%
Cc1cnc(-n2ncc(C(=O)NCc3ccccn3)c2C2CC2)nc1-c1cccs1	-11.2%
Cc1cc(-c2ccnc(-n3ncc(C(=O)NCC4COCCO4)c3C)n2)c(C)s1 (configuration not stated)	38.4%[activator]
Cc1cnc(-n2ncc(C(=O)NCc3ccncc3)c2C(C)C)nc1-c1ccc(F)cc1	-20.6%
O=C(O)c1ccc(-c2noc(-c3ccccc3F)n2)cc1	-61.7%
Cc1c(C(=O)NCc2ccc(F)cc2)sc2ncnc(NCC3CCCO3)c12 (configuration not stated)	-13.3%
Cc1cnc(SCc2ccccn2)nc1C1CCCN(C(=O)c2cccc(-c3cccc(F)c3)c2)C1 (configuration not stated)	?
O=C1CC(C(=O)N2CCOc3ccc(CN4CCC(Oc5cccnc5)CC4)cc3C2)c2ccccc21 (configuration not stated)	-17.5%
Cc1ccc(S(=O)(=O)N2CCN(c3nc(-c4cccs4)nc4ccccc34)CC2)cc1	-30.7%

Assay outcomes as filed in PubChem.

The list is partial; the hit share may differ from the screen's.
